Insulin prom inh: inhibitors of insulin promoter-driven GFP, primary screen, imaging, TRM-6 cells (human fetal islet line), eGFP reporter, cell count; inhibition, % at 2 µM; AID 1273, 2008; 130,000 compounds, 0.9% hits; reporter expression induced with tamoxifen;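 active = inhibition above the mean plus 3 SD, with well images judged a real hit on visual review, cut at about 60% in these data, passing the limit was not always enough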
HSV replic up: enhancers of HSV replication in host cells, fold increase, host cell viability. HSV replication augmentation in cells. maximum fold increase. 220,000 compounds, 0.005% hits. AID 1956, 2009;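 active = peak rise of 1.5-fold or more in the series; tested in PC3 cells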;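 also: first round at 10 µM; read as green reporter fluorescence; hits show the peak of a series up to 25 µM; 1 = signal of infected wells without compound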
GALR2 ag: GALR2 receptor agonists, primary screen, cell-based; GALR2-expressing cells, agonist activation read-out; activation, %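 (tested at 5 µM)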; 140,000 compounds, 0.48% hits; AID 803, 2007;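 active = above mean plus 3 SD of all compounds, about 5% in these data, not always enough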;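 also: 0% = vehicle buffer wells and 100% = reference agonist at full effect; tested in CHO reporter cells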
RGS16-Gao: modulators of RGS16 binding to Galphao, primary screen, biochemical, human proteins, multiplexed bead flow cytometry; Regulator of G-protein signaling 16 (Homo sapiens) + Guanine nucleotide-binding protein …; bead-based flow cytometry RGS16-Galphao binding, fluorescence; actives lie on both sides; binding response (% of control), % at 10 µM; 220,000 compounds, 0.38% hits;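 active = below 25% or above 175%, edge rows of some plates excepted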;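 also: Galphao activated by GDP with aluminum fluoride before binding; 100% = wells without compound and 0% = beads without RGS; some results beyond the cut were filed as inactive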
PKD1 inh: inhibitors of human PKD1 kinase, biochemical, fluorescence polarization | inhibition, %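 (about 10 µM by stock and volumes)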 | AID 797, 2007 | PKD1 kinase fluorescence polarization assay | 200,000 compounds, 0.056% hits;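 active = inhibition of 50% or more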;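 also: controls were vehicle for no effect and a reference inhibitor for full effect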
Target sequence (Q15139 whole entry, looked up): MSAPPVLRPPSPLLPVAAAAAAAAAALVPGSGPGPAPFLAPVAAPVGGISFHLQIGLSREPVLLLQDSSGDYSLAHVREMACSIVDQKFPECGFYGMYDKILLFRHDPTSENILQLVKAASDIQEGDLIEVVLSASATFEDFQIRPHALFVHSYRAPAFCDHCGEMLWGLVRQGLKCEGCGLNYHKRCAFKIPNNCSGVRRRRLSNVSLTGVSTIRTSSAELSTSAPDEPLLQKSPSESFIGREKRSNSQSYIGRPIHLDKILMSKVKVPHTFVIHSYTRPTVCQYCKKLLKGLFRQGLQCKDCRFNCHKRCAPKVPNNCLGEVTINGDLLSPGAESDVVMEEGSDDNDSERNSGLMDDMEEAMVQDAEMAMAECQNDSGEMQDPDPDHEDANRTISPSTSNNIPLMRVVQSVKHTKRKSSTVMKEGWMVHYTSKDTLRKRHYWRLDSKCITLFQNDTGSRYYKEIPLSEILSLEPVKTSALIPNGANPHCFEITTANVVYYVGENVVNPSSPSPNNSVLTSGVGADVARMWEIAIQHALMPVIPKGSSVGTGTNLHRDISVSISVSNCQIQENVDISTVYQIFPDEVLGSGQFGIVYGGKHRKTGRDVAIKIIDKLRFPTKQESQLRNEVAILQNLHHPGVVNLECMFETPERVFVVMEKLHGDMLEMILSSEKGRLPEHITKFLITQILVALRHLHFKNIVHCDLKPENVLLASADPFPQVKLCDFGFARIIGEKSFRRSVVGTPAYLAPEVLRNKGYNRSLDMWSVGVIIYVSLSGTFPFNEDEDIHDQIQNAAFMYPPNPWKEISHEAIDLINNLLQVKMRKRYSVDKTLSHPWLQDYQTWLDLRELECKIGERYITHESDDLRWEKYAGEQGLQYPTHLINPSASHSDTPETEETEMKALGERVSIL
Insulin prom inh cell count: further read-out of Insulin prom inh, marked with its call; normalized cell count, %; measured here: cell count, toxicity; reference of the scale not given here;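 cells exposed to compound for 48 h; stained nuclei by imaging scaled within each plate; lower means fewer cells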
HSV replic up primary fold: further read-out of HSV replic up, marked with its call; fold increase; compound at 10 µM; measured here: primary screen fold increase 10 uM; tested in PC3 cells;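 GFP signal in the first replicate; 1 = infected wells without compound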
Numbers without * were called inactive; i = inactive; nt = not tested or not shown.

Start of the listing, in advance:
SMILES	Insulin prom inh	Insulin prom inh cell count	HSV replic up	HSV replic up primary fold	GALR2 ag	RGS16-Gao	PKD1 inh
Cc1cc2cc(CN(Cc3cccs3)S(=O)(=O)c3ccc4c(c3)OCCO4)c(=O)[nH]c2cc1C	0	60	i	1	-0.9	101	0
CCCC(c1nnnn1Cc1ccco1)N1CCN(C(=O)c2ccco2)CC1 (configuration not stated)	43	91	i	1.1	-1.4	96	-4
Cn1nnc(NC(=S)NC(=O)Cc2ccccc2)n1	nt	nt	i	1	nt	97	-5
Cc1ccccc1NC(=O)CSc1nnnn1C	13	135	i	0.99	-2.6	101	1
COc1cccc(OCc2nnc(SCC(=O)OC3CCCCC3)n2C)c1	nt	nt	i	0.73	-1.3	42	-14
Cc1ccc(Nc2nnc(SCC(=O)NC(Cc3c[nH]c4ccccc34)C(=O)O)s2)cc1 (configuration not stated)	nt	nt	i	0.99	nt	96	-11
CS(=O)(=O)c1ccc2nnn(OCC(=O)Nc3cccc(C#N)c3)c2c1	nt	nt	i	0.97	nt	104	nt
Cn1c(SCc2cccc(F)c2)nnc1-c1cnccn1	nt	nt	i	1	nt	99	nt
C=C(C)c1cccc(C(C)(C)NC(=O)NCCCN2CCCC2=O)c1	-47	98	i	1	-2.4	109	2
COc1ccccc1NC(=O)CS(=O)(=O)c1cn(CC(=O)N2CCOCC2)c2ccccc12	12	87	i	0.93	nt	97	-5
CN(NC(=O)c1cccc(Cl)c1)c1nc(-c2ccccc2)nnc1C(F)(F)F	-44	121	i	0.76	-1.1	100	-16
COc1ccccc1-c1noc(-c2ccccc2C(=O)Nc2ccccc2)n1	nt	nt	i	1.1	-2.7	105	7
COc1ccc(OS(=O)(=O)c2c(C)noc2C)cc1	nt	nt	i	1.1	nt	100	nt
c1ccc(C(Cc2nc(-c3ccccn3)no2)c2ccccc2)cc1	17	138	i	0.98	1.5	7	-11
COc1ccc(/C=N/N2C(=O)c3ccccc3C2=O)cc1	nt	nt	i	1.1	-0.3	108	-7

Results, from the first entry:
SMILES	Insulin prom inh	Insulin prom inh cell count	HSV replic up	HSV replic up primary fold	GALR2 ag	RGS16-Gao	PKD1 inh
Cc1cc2cc(CN(Cc3cccs3)S(=O)(=O)c3ccc4c(c3)OCCO4)c(=O)[nH]c2cc1C	0	60	i	1	-0.9	101	0
CCCC(c1nnnn1Cc1ccco1)N1CCN(C(=O)c2ccco2)CC1 (configuration not stated)	43	91	i	1.1	-1.4	96	-4
Cn1nnc(NC(=S)NC(=O)Cc2ccccc2)n1	nt	nt	i	1	nt	97	-5
Cc1ccccc1NC(=O)CSc1nnnn1C	13	135	i	0.99	-2.6	101	1
COc1cccc(OCc2nnc(SCC(=O)OC3CCCCC3)n2C)c1	nt	nt	i	0.73	-1.3	42	-14
Cc1ccc(Nc2nnc(SCC(=O)NC(Cc3c[nH]c4ccccc34)C(=O)O)s2)cc1 (configuration not stated)	nt	nt	i	0.99	nt	96	-11
CS(=O)(=O)c1ccc2nnn(OCC(=O)Nc3cccc(C#N)c3)c2c1	nt	nt	i	0.97	nt	104	nt
Cn1c(SCc2cccc(F)c2)nnc1-c1cnccn1	nt	nt	i	1	nt	99	nt
C=C(C)c1cccc(C(C)(C)NC(=O)NCCCN2CCCC2=O)c1	-47	98	i	1	-2.4	109	2
COc1ccccc1NC(=O)CS(=O)(=O)c1cn(CC(=O)N2CCOCC2)c2ccccc12	12	87	i	0.93	nt	97	-5
CN(NC(=O)c1cccc(Cl)c1)c1nc(-c2ccccc2)nnc1C(F)(F)F	-44	121	i	0.76	-1.1	100	-16
COc1ccccc1-c1noc(-c2ccccc2C(=O)Nc2ccccc2)n1	nt	nt	i	1.1	-2.7	105	7
COc1ccc(OS(=O)(=O)c2c(C)noc2C)cc1	nt	nt	i	1.1	nt	100	nt
c1ccc(C(Cc2nc(-c3ccccn3)no2)c2ccccc2)cc1	17	138	i	0.98	1.5	7	-11
COc1ccc(/C=N/N2C(=O)c3ccccc3C2=O)cc1	nt	nt	i	1.1	-0.3	108	-7
COC(=O)c1ccc(S(=O)(=O)NCCSc2nnc3c4ccccc4n(C)c3n2)cc1	nt	nt	i	0.91	-0.6	99	-3
S=C(Nc1ccc(Cl)c(Cl)c1)N1CCOCC1	28	93	i	0.87	-0.6	138	-8
Cc1nc(Sc2nnnn2-c2ccccc2)c(C#N)c(C)c1C	nt	nt	i	0.82	-1.7	99	-10
Cc1cc(OC(=O)c2ccc(S(=O)(=O)N(C)C)cc2)c([N+](=O)[O-])c(=O)[nH]1	-100	39	i	0.96	nt	114	2
Clc1ccc(CSc2ncccn2)cc1	50	70	i	0.87	-0.6	97	-9
O=C(CCN1C(=O)C2CC=C(Cl)CC2C1=O)NCc1ccco1 (configuration not stated)	4	96	i	0.82	-0.9	104	4
O=C(c1ccc2ccccc2c1)N1CCN(c2ccccc2)CC1	-349	47	i	0.93	-2.2	104	0
COc1ccc(/C=C/C(=O)NCC(=O)N/N=C/c2cccnc2)cc1	20	86	i	0.89	nt	106	10
O=C(O)c1cc(S(=O)(=O)N2CCCC2)ccc1Br	nt	nt	i	0.98	-2.4	103	-9
CC(C)CN(C(=O)COC(=O)c1cc2ccccc2oc1=O)C1CCS(=O)(=O)C1 (configuration not stated)	22	136	i	0.89	-2.4	101	11
NC(=O)C1(NC(=O)[C@@H]2CC3(CC(c4cccc(NC(=O)[C@@H]5CCC(=O)N5)c4)=NO3)CN2C(=O)Cc2ccc(C(F)(F)F)cc2)CC1 (some centres not stated)	nt	nt	i	0.94	-2.6	104	9
COc1ccc(Nc2nc3ccccc3s2)cc1	nt	nt	i	0.89	nt	112	-6
COc1ccc(N2C(=O)c3cccc4cccc(c34)C2=O)nn1	-23	120	i	1.1	-2.5	100	-5
O=C(CNC(=O)c1cccs1)NCCN1CCN(c2ccccc2F)CC1	16	126	i	0.98	-1.2	106	-11
CN(Cc1ccccc1)C(=O)c1ccc2c(c1)OCCO2	nt	nt	i	0.89	-0.4	104	-4
O=C(O)/C=C/C(=O)NNC(=O)c1cccc(Br)c1	nt	nt	i	0.96	-1.9	95	-2
O=C1CC(c2ccc(O)c(O)c2)Oc2c1ccc(O)c2O (configuration not stated)	nt	nt	i	0.9	nt	98	nt
COc1ccc(C(OC(=O)c2cccs2)C(=O)NCC2CCCO2)cc1 (configuration not stated)	42	189	i	1.3	-1.5	107	-15
C/C(N)=C(/C#N)C(=O)COC(=O)Cc1coc2cc(C)ccc12	-7	131	i	1	nt	100	-7
CC(C)CC(C(=O)O)N(Cc1ccccc1)Cc1ccccc1 (configuration not stated)	45	104	i	1.1	-0.5	49	13
CC(C1CCN(Cc2nc(C3CC3)no2)CC1)N1CCOCC1 (configuration not stated)	nt	nt	i	1.1	nt	99	1
C=C(C)CN=c1scc(C)n1/N=C/c1ccco1	nt	nt	i	0.95	-2.4	70	-1
O=C(CN(C(=O)CNS(=O)(=O)c1ccccc1)C1CCCC1)NCc1ccco1	nt	nt	i	0.87	nt	63	nt
COc1ccc(-c2cc(C(F)(F)F)c3c(=O)n(-c4ccccc4)[nH]c3n2)cc1	-46	63	i	0.83	-1.4	96	-1
Cc1nc(NCc2cccnc2)c2c3c(sc2n1)CCCC3	nt	nt	i	0.89	nt	102	-6
Cc1cccc(C(CC(=O)O)NC(=O)C(F)(F)F)c1 (configuration not stated)	nt	nt	i	1	nt	107	3
COc1ccc(-c2cc(C(F)(F)F)n3nc(C(=O)NCc4ccco4)cc3n2)cc1	nt	nt	i	0.78	2.3	100	-12
CC(C)(C)OC(=O)NCCCC[C@H](NC(=O)c1nc[nH]c1C(=O)N1CCN(c2ccccc2)CC1)C(=O)OC(C)(C)C	nt	nt	i	0.7	nt	102	nt
COc1ccc(C(=O)NCc2nnc(SCC(=O)N3CCc4ccccc43)n2CCc2ccccc2)cc1	nt	nt	nt	nt	-1.6	95	-4
CCn1c(CSCc2ccc(F)cc2)nnc1SCC(=O)NCc1ccccc1	-46	53	i	1	-0.5	90	-8
C=CCNC(=O)CCCOc1cccc(C)c1	-18	220	i	0.83	-0.9	49	-4
O=C(NC(=S)Nc1ccc(N2CCOCC2)c(Cl)c1)c1cccs1	nt	nt	i	0.96	nt	101	-6
C=CCOc1ccccc1CNCc1ccc(F)cc1	-37	69	i	1.1	nt	103	-6
COC(=O)c1ccc(CNC(=O)c2coc3ccccc3c2=O)cc1	-7	109	i	0.99	nt	101	-2
CN(C)c1ccc(C(C#N)c2ccc(Cl)cc2)nn1 (configuration not stated)	-21	97	i	0.9	nt	94	-4
COc1ccccc1N1CCN(C(c2cccs2)C(C)NC(=O)c2ccco2)CC1 (configuration not stated)	nt	nt	i	0.98	nt	98	nt
COCCCNC(=O)CSc1nc2ccccc2c(=O)n1CCC(=O)NCCc1ccc(OC)c(OC)c1	-8	67	i	0.68	nt	106	-1
O=C1N=C(N2CCCC2C(=O)O)S/C1=C\c1ccco1 (configuration not stated)	nt	nt	i	1.1	nt	94	9
CC(C)CCNc1nc(N)c([N+](=O)[O-])c(NCC2CCCO2)n1 (configuration not stated)	-56	44	i	0.95	-1.2	107	3
CC(C)Sc1ncnc2c1oc1ccccc12	nt	nt	i	0.71	-1.9	96	10
CC1CN(C2CCN(C(=O)c3ccccc3Cl)CC2)CC(C)O1 (configuration not stated)	nt	nt	i	0.99	-2.8	105	-5
O=C(/C=C/c1cccc([N+](=O)[O-])c1)NCCSCc1ccccc1Cl	12	125	i	0.88	0.5	103	-4
O=C(CSc1nc2ccc(Cl)cc2[nH]1)NC1CCCc2ccccc21 (configuration not stated)	-93	87	i	0.91	-0.6	104	-4
O=C(Cn1cc([N+](=O)[O-])cn1)Nc1cccnc1	35	99	i	0.87	nt	101	2
COc1ccc(N2C(=O)/C(=C/c3cccnc3)NC2=S)cc1	nt	nt	i	1	-0.9	97	0

Exported with bars between the fields: 2 of the compounds above
compound | Insulin prom inh | Insulin prom inh cell count | HSV replic up | HSV replic up primary fold | GALR2 ag | RGS16-Gao | PKD1 inh
COc1cccc(OCc2nnc(SCC(=O)OC3CCCCC3)n2C)c1 | nt | nt | i | 0.73 | -1.3 | 42 | -14
Cc1ccc(Nc2nnc(SCC(=O)NC(Cc3c[nH]c4ccccc34)C(=O)O)s2)cc1 (configuration not stated) | nt | nt | i | 0.99 | nt | 96 | -11

(more compounds)
SMILES	Insulin prom inh	Insulin prom inh cell count	HSV replic up	HSV replic up primary fold	GALR2 ag	RGS16-Gao	PKD1 inh
CC(C)Cc1nnc(NC(=O)c2ccncc2)s1	24	120	i	0.99	-1.6	97	1
NC(=O)CSc1nnc(-c2cnccn2)n1-c1ccccc1	-24	103	i	0.99	-1.5	103	-2
CC(C)OCCCNC(=O)c1ccc(C2SCC(=O)N2Cc2ccco2)cc1 (configuration not stated)	nt	nt	i	0.75	nt	102	9
Cc1cc(C)nc(SCC(=O)Nc2ncc(Cc3ccc(Cl)c(Cl)c3)s2)n1	3	105	i	1	2.0	109	-14
CCc1c(C)sc2nc(C(C)C)nc(SCC(=O)N3CCc4ccccc4C3)c12	29	136	i	0.64	-1.3	94	-3
Cc1nc(NC(=O)COC(=O)c2ccc(S(=O)(=O)N3CCc4ccccc4C3)cc2)c(Cl)cc1Cl	-18	110	i	0.96	nt	109	3
Cc1ccc(C)n1-c1ccc(-n2cnnn2)cc1	11	110	i	0.96	-1.8	83	-10
CCN(c1ccccc1)S(=O)(=O)c1ccc(NC(=O)c2ccco2)cc1	nt	nt	i	0.96	nt	104	-6
COc1cccc(CC2(CO)CCCN(Cc3cn(C)c4ccccc34)C2)c1 (configuration not stated)	nt	nt	i	0.79	nt	104	-3
CCOC(=O)C1C(=O)C=C(c2ccc(C)cc2)CC1c1ccc([N+](=O)[O-])cc1 (configuration not stated)	nt	nt	i	1.1	1.0	102	1
Brc1ccc(OCc2ccccc2)c(CNCC2CCCO2)c1 (configuration not stated)	nt	nt	i	0.86	nt	100	-10

Screening data (PubChem)
